# High-throughput results deposited in PubChem BioAssay by National Center for Advancing Translational Sciences (NCATS).
# KAT2A inh – qHTS Assay for Inhibitors of GCN5L2 | Histone acetyltransferase KAT2A (Homo sapiens), Q92830 | GCN5L2 HAT assay, ThioGlo1 CoA-SH fluorescence | Potency, µM (top dose mostly 58.9 µM), for the others: at the highest dose activity change, negative = inhibition, usual class: inhibitors | 390,000 tested, 0.21% active | AID 504327, 2011
# Target sequence (Q92830 whole entry, looked up): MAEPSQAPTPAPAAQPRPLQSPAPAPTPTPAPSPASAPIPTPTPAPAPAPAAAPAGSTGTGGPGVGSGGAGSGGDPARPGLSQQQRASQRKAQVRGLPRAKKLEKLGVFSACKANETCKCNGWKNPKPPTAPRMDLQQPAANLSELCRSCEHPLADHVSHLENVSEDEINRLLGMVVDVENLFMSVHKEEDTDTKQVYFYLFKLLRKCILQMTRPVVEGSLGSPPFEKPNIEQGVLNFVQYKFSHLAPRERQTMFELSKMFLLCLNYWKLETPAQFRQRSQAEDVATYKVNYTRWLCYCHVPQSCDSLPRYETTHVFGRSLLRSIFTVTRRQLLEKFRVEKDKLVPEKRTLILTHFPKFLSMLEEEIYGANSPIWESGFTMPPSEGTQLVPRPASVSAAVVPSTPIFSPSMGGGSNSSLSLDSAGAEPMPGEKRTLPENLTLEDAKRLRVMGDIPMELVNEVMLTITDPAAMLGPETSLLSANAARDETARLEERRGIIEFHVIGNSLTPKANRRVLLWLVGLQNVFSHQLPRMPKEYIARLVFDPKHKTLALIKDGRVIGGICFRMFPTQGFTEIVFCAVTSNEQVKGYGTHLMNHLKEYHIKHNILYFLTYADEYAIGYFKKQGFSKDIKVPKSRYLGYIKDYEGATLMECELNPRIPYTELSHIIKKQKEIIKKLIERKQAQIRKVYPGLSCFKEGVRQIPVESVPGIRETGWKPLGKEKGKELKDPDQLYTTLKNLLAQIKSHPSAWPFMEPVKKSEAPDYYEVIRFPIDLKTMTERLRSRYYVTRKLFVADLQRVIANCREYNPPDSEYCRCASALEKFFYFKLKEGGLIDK
#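 Fluorescence readout, Ex340nm/Em540nm: ThioGlo1 (50uM final) reacts with free CoA thiol released as 20nM GCN5L2 acetylates H3(1-25) peptide (75uM) using acetyl-CoA (70uM). Compound and enzyme sat 15 min beforehand; 20 min room-temperature reaction.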
# N370S GC – qHTS Assay for Inhibitors and Activators of N370S glucocerebrosidase as a Potential Chaperone Treatment of Gaucher Disease; N370S GC spleen homogenate, 4MU-glucoside fluorescence; Lysosomal acid glucosylceramidase (Homo sapiens), P04062; Potency, µM (doses to about 59.4 µM), for inactives: top-dose activity change, negative = inhibition, actives largely listed as inhibitors; AID 2101, 2009; 330,000 tested, 0.092% active;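 also: 0% = full enzyme activity and -100% = no enzyme basal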
# Numbers without * were called inactive; ? = inconclusive; · = no result given; & = joins results of further samples. Calls follow the shape of the dose curve; as a rule, active = well fitted curve in the direction sought with a large enough effect; inconclusive = small, poorly fitted or top-dose-only effect, or another doubt; inactive = no such curve, though single readings can be large; an effect the other way counts as inactive or inconclusive. Unless noted, % is scaled to controls: 0 for no effect and ±100 for the full control effect; potency is read from the fitted curve at half-maximal effect. These rows are one share of the data, and most or all hits are left out here.
KAT2A inh | N370S GC | SMILES
? | 2% | Cc1cccc(NC(=O)CNC(=O)CNC(=O)Cc2ccccc2)c1
-3% | 2% | CCOc1ccc(S(=O)(=O)N2CCN(CCNS(=O)(=O)c3ccc(C)cc3)CC2)cc1
-7% | 2% | Cc1ccc(S(=O)(=O)NCC(=O)N/N=C/c2ccc(Cl)cc2Cl)cc1
-21% | 3% | CCCCn1c(=O)[nH]c2nc3cc(NC(C)=O)ccc3nc2c1=O
2% | 5% | CCC(C)/C(C)=N/NC(=O)c1cn(-c2ccccc2)nc1-c1ccccc1 (stereo not given)
-3% | -5% | CC(C)NC(=O)C1CCN(C(=O)N(C)C)CC1
-1% | -22% | Cc1cccc2cc3c(NC(=O)CC(C)C)nn(C)c3nc12
-5% | ? | CCOC(=O)C(NC(=O)c1ccccc1OCC)(Nc1ncccn1)C(F)(F)F (stereo not given)
-14% | 1% | CC1=C(C(=O)OCC(C)C)C(c2cc3c(cc2Br)OCO3)NC(=O)N1C (stereo not given)
-9% | -4% | O=C(Nc1nc(-c2cc(F)ccc2F)cs1)C1=NN(c2ccccc2)C(=O)CC1
-1% | -5% | CCCn1c(C2CC(=O)N(c3cc(OC)ccc3OC)C2)nc2ccccc21 (stereo not given)
-1% | · | Cc1c(NC(=O)CSc2nc3ccccc3c(=O)n2C(C)C)c(=O)n(-c2ccccc2)n1C
-9% | 1% | COc1ccc(CCNC(=O)C2CC(=O)N(c3ccc(C(C)(C)C)cc3)C2)cc1OC (stereo not given)
-7% | 8% | O=C(NNC(=O)c1ccc(O)cc1O)c1ccc(-c2ccccc2)cc1
-8% | ? | c1ccc2c(c1)ncc1cccn12
-3% | -11% | CCOc1ccc2nc(NC(=O)C3CCCO3)sc2c1 (stereo not given)
3% | -10% | CCN(CC)c1ccc(N)cc1
-29% | 7% | CN1CCc2c(sc(NC(=O)c3ccc([N+](=O)[O-])o3)c2C(N)=O)C1
-3% | · | CCn1c(SCc2ccccc2)nnc1-c1nonc1NC(C)=O
-30% | 12% | CC(C)N1CCN(Cc2ccoc2)CC1CCO (stereo not given)
-13% | -2% | COC1CCCCC1Nc1cccc(SC)c1 (stereo not given)
2% | · | CCCCn1c(=N)c(C(=O)NC2CCCCC2)cc2c(=O)n3cccc(C)c3nc21
2% | -10% | COC(=O)/C(C#N)=C/c1c(Oc2cc(C)cc(C)c2)nc2ccccn2c1=O
? | -2% | CC(C)C[C@H](NC(=O)c1[nH]cnc1C(=O)N[C@@H](Cc1ccccc1)C(=O)OC(C)(C)C)C(=O)OCc1ccccc1
1% | -8% | COc1ccc(CC(=O)OCC(=O)NC(=O)NC2CCCCC2)cc1
-2% | -11% | O=C(NCCCn1ccnc1)c1ccc(N2CCCCCC2)c([N+](=O)[O-])c1
5% | -9% | CC(=O)c1c(C)oc2ccc(NS(=O)(=O)c3cccs3)cc12
-13% | 11% | O=C(NCc1c(O)ccc2ccccc12)c1ccccc1
-12% | 2% | CC1(C)Cc2c(c(-c3ccccc3)nc(N3CCOCC3)c2C(N)=O)CO1
-1% | -11% | Cc1nnc(N/N=C/c2ccccn2)[nH]c1=O
0% | -2% | CC(/C=N/NC(=O)CSc1n[nH]c(=O)[nH]c1=O)=C\c1ccccc1
-8% | 3% | CC(C)(C)NC(=O)C(c1ccncc1)N(Cc1cccs1)C(=O)Cn1nnc(-c2cccs2)n1 (stereo not given)
-1% | · | COC(=O)c1cc2occc2n1CC(=O)Nc1ccc(C)cc1Cl
-3% | -8% | CCN(CC)C(=O)CSc1nc2ncc(Br)cc2[nH]1
-3% | -1% | COc1ccc(CC(=O)OC(C)C(=O)NCc2ccc3c(c2)OCO3)cc1OC (stereo not given)
4% | -2% | Cc1cccc(N2C(=O)CSC23CCCCC3)c1
-26% | -9% | CCOC(=O)c1ncn2c1[C@@H]1CCNC1C(=O)c1cc(OC)ccc1-2 (stereo not given in full)
-3% | -3% | Cc1cccc(NC(=O)CN2CCSc3ccccc32)c1
-3% | 1% | COc1ccc(N2CC(NC(=O)N3CCc4ccccc43)CC2=O)cc1OC (stereo not given)
-4% | 4% | CN(C)S(=O)(=O)c1cccc(C(=O)Nc2ccc3c(c2)CCC3)c1
-7% | 0% | O=C1CCc2cc(S(=O)(=O)NC(C(=O)NCc3cccnc3)c3ccccc3)ccc2N1 (stereo not given)
-14% | 9% | CC(C)c1ccc(/C=N/n2c(COc3ccccc3)n[nH]c2=S)cc1
16% | 11% | O=C(Nc1cccnc1Cl)C1c2ccccc2Oc2ccccc21
-4% | 5% | CCC(Sc1nncn1C)C(=O)Nc1cc(C)on1 (stereo not given)
-3% | 25% | CCOC(=O)c1c(N)nn(C(=O)CC)c1-c1ccccc1
-3% | · | CCc1nnc(NC(=O)c2cccc(S(=O)(=O)N3CCN(C(C)=O)CC3)c2)s1
-9% | · | O=C(NCc1ccc(Cl)cc1)C1CCN(c2ncnc3c2nc2n3CCCCC2)CC1
-4% | · | O=C(CSc1nnnn1C1CC1)N1CCN(c2ccccc2F)CC1
· | 0% | Cc1c(N2C(=O)c3cccc4cccc(c34)C2=O)c(=O)n(-c2ccccc2)n1C
-7% | -7% | Cc1nc(N/N=C/c2cccc(F)c2)cc(N2CCOCC2)n1
-17% | 19% | Cc1cc(=O)oc2c(C)c(OCC(=O)N3CCN(C(=O)C4COc5ccccc5O4)CC3)ccc12 (stereo not given)
-6% | 28% | CCc1cc2c(COC(=O)c3cccc(S(C)(=O)=O)c3)cc(=O)oc2cc1O
0% | 0% | O=C(N/C(=C\c1ccco1)C(=O)N1CCC(O)CC1)c1ccccc1
-3% | -17% | CCn1c(=O)cc(OCC(=O)NCCc2cccc(C)c2)c2ccccc21
-3% | 0% | COc1ccccc1C(=O)N/N=C/c1c[nH]c2ccccc12
-5% | 14% | COCCNC(=O)c1cnn2c(C(F)(F)F)cc(-c3ccc(C)cc3)nc12
-2% | -2% | Cn1cnc([N+](=O)[O-])c1Oc1ccccc1
2% | 0% | OCC[C@H]1C[C@@H](O)[C@H](O)[C@@]2(Cc3ccccc3CCO2)O1
-5% | 3% | COc1ccccc1/C=C/C=N\N1CCN(Cc2ccccc2Cl)CC1
-5% | 4% | CC/C(=N\NC(=O)c1ccc2c(c1)OCO2)C12CC3CC(CC(C3)C1)C2

# Other entries follow.
KAT2A inh | N370S GC | SMILES
-7% | 2% | Cc1ccc(NC(=O)CCN2C(=O)c3ccncc3C2=O)cc1
1% | -1% | CC(C)CN(C(=O)CSc1nnc(-c2cccs2)n1N)c1c(N)n(Cc2ccccc2)c(=O)[nH]c1=O
-24% | -3% | O=C(COc1ccc(S(=O)(=O)N2CCOCC2)cc1)NCc1ccco1
-12% | -15% | COc1cccc(CN(CC2CCCO2)S(=O)(=O)c2ccc(S(=O)(=O)NCC3CCCO3)cc2)c1OC (stereo not given)
3% | -2% | CSCCC(=O)N(C)CC1CCCN(CCc2cccc(C(F)(F)F)c2)C1 (stereo not given)
-7% | · | Cc1nn(C(C)C(=O)Nc2ccccc2C(F)(F)F)c(=O)c2c1sc1ccccc12 (stereo not given)
-3% | ? | CC(C)CNC(=S)N(CCN(C)C)Cc1cc2cc3c(cc2[nH]c1=O)OCCO3
-1% | -24% | O=S(=O)(NC(=NCc1ccccc1)c1ccccc1)c1ccc(Br)cc1
-9% | 7% | Cc1ccc(CC2CC(=O)N(c3ccc(Cl)cn3)C2=O)cc1 (stereo not given)
-6% | · | COc1cc(Cl)c(S(=O)(=O)N2CCN(c3c(C)cccc3C)CC2)cc1Cl
-1% | -2% | COc1ccc(-c2nc3n(c2C)CCC3)cc1
1% | -2% | COc1cc(OC)cc(C(=O)N[C@H](C(=O)OCC(=O)c2ccc3c(c2)NC(=O)CO3)C(C)C)c1
-11%&3% | 1% | CC(NC(=O)C1(c2cccs2)CCOCC1)c1ccccc1 (stereo not given)
-8% | · | CCOC(=O)N1CCN(C(=O)CNC(=O)c2ccc(Cl)cc2Cl)CC1
-2% | 7% | Cc1cc(NS(=O)(=O)c2ccc(NC(=O)c3cc4ccccc4o3)cc2)nc(C)n1
-7% | 1% | CN1CCN(C(=O)c2ccc(N(C)S(=O)(=O)c3cccs3)cc2)CC1
? | 3% | Cc1ccc(CNC(=O)CN(C)S(=O)(=O)c2cccc3nsnc23)cc1
-15% | 1% | Cc1csc(NC(=O)COCC(=O)O)c1-c1nc2ccccc2s1
-6% | 5% | CC(C)(C)NC(=O)CSc1nc(O)cc(=O)n1-c1ccccc1F
-5% | -13% | CC(=O)N1CCc2c(sc(NC(=O)Cc3ccc(F)cc3)c2C#N)C1

# Some of these compounds in order of SMILES length, falling:
KAT2A inh | N370S GC | SMILES
? | -2% | CC(C)C[C@H](NC(=O)c1[nH]cnc1C(=O)N[C@@H](Cc1ccccc1)C(=O)OC(C)(C)C)C(=O)OCc1ccccc1
1% | -2% | COc1cc(OC)cc(C(=O)N[C@H](C(=O)OCC(=O)c2ccc3c(c2)NC(=O)CO3)C(C)C)c1
1% | -1% | CC(C)CN(C(=O)CSc1nnc(-c2cccs2)n1N)c1c(N)n(Cc2ccccc2)c(=O)[nH]c1=O
-12% | -15% | COc1cccc(CN(CC2CCCO2)S(=O)(=O)c2ccc(S(=O)(=O)NCC3CCCO3)cc2)c1OC (stereo not given)
-8% | 3% | CC(C)(C)NC(=O)C(c1ccncc1)N(Cc1cccs1)C(=O)Cn1nnc(-c2cccs2)n1 (stereo not given)
-3% | 2% | CCOc1ccc(S(=O)(=O)N2CCN(CCNS(=O)(=O)c3ccc(C)cc3)CC2)cc1
-7% | 0% | O=C1CCc2cc(S(=O)(=O)NC(C(=O)NCc3cccnc3)c3ccccc3)ccc2N1 (stereo not given)
-7% | · | Cc1nn(C(C)C(=O)Nc2ccccc2C(F)(F)F)c(=O)c2c1sc1ccccc12 (stereo not given)
2% | -10% | COC(=O)/C(C#N)=C/c1c(Oc2cc(C)cc(C)c2)nc2ccccn2c1=O
-6% | · | COc1cc(Cl)c(S(=O)(=O)N2CCN(c3c(C)cccc3C)CC2)cc1Cl
-14% | 1% | CC1=C(C(=O)OCC(C)C)C(c2cc3c(cc2Br)OCO3)NC(=O)N1C (stereo not given)
-5% | 14% | COCCNC(=O)c1cnn2c(C(F)(F)F)cc(-c3ccc(C)cc3)nc12
-7% | 1% | CN1CCN(C(=O)c2ccc(N(C)S(=O)(=O)c3cccs3)cc2)CC1
-4% | 4% | CN(C)S(=O)(=O)c1cccc(C(=O)Nc2ccc3c(c2)CCC3)c1
-5% | -13% | CC(=O)N1CCc2c(sc(NC(=O)Cc3ccc(F)cc3)c2C#N)C1
5% | -9% | CC(=O)c1c(C)oc2ccc(NS(=O)(=O)c3cccs3)cc12
1% | -8% | COc1ccc(CC(=O)OCC(=O)NC(=O)NC2CCCCC2)cc1
-1% | · | COC(=O)c1cc2occc2n1CC(=O)Nc1ccc(C)cc1Cl
-4% | · | O=C(CSc1nnnn1C1CC1)N1CCN(c2ccccc2F)CC1
-3% | 0% | COc1ccccc1C(=O)N/N=C/c1c[nH]c2ccccc12
-3% | · | CCn1c(SCc2ccccc2)nnc1-c1nonc1NC(C)=O
-3% | -8% | CCN(CC)C(=O)CSc1nc2ncc(Br)cc2[nH]1
-2% | -2% | Cn1cnc([N+](=O)[O-])c1Oc1ccccc1
-1% | -11% | Cc1nnc(N/N=C/c2ccccn2)[nH]c1=O
4% | -2% | Cc1cccc(N2C(=O)CSC23CCCCC3)c1
-1% | -2% | COc1ccc(-c2nc3n(c2C)CCC3)cc1
-13% | -2% | COC1CCCCC1Nc1cccc(SC)c1 (stereo not given)
-8% | ? | c1ccc2c(c1)ncc1cccn12
3% | -10% | CCN(CC)c1ccc(N)cc1

# Going on with the list:
KAT2A inh | N370S GC | SMILES
2% | 13% | O=C(NCc1cccnc1)c1cccc(-c2cc3ccccc3oc2=O)c1
-3% | 13% | CCN1CCN(C(=O)CN(c2cccc(Br)c2)S(=O)(=O)c2ccccc2)CC1
0% | · | COc1ccccc1C(=O)OCc1cc(=O)n2nc(C(C)C)sc2n1
-11% | 11% | O=C(CCNS(=O)(=O)c1c(Cl)cccc1Cl)OCC(=O)c1ccccc1F
-1% | -1% | COc1ccc(-n2c(SCC(=O)NCCC(C)C)nc3ccsc3c2=O)cc1
-17% | 2% | O=C(COc1ccccc1Cl)Nc1ccc(CN2CCOCC2)cc1
1% | 8% | O=C(CSc1ccc2nnc(-c3ccncc3)n2n1)Nc1ccc2c(c1)OCO2
-1% | 17% | COc1ccc(C(C)=O)cc1COC(=O)c1cccnc1Cl
-1% | · | O=[N+]([O-])c1ccc(Cc2ccccn2)cc1
-3% | -5% | CCCC(=O)Nc1ccc(NC(=O)c2ccccn2)cn1
-4% | -7% | OCC1(CCOc2ccccc2)CCN(Cc2cc(Cl)ccc2O)CC1

# One compound at a time, as listed above. Order of values: KAT2A inh | N370S GC
# CCN1CCN(C(=O)CN(c2cccc(Br)c2)S(=O)(=O)c2ccccc2)CC1 reads -3% | 13%
# O=[N+]([O-])c1ccc(Cc2ccccn2)cc1 reads -1% | ·
